Screening data (PubChem BioAssay)
VACV mCherry inh = vaccinia inhibition (mCherry reporter) | Vaccinia virus mCherry reporter infection, fluorescence; about a quarter of the inactives have no number | Potency, µM (doses to about 36.5 µM), for inactives: at the top dose activity change, negative = inhibition, actives largely listed as inhibitors | hit rate 0.63% among 310,000; active = well fitted inhibition curve with a large enough effect; inconclusive = small, poorly fitted or top-dose-only effect; inactive = no such curve, though single readings can be large or run the other way; tested in A549 cells; also: nearly all actives have a fitted effect of over 35% in size; inactives centre near -10
VACV Venus inh = inhibitors of vaccinia virus (Venus reporter). AID 720580. hit rate 0.46% among 330,000. Potency, µM (doses to about 36.5 µM), inactives show at the top dose activity change, negative = inhibition, most hits filed as inhibitors. Vaccinia virus Venus reporter expression, fluorescence; active means well fitted inhibition curve with a large enough effect; inconclusive means small, poorly fitted or top-dose-only effect; inactive means no such curve, though single readings can be large or run the other way; tested in A549 cells; also: nearly all actives have a fitted effect of over 30% in size; inactives centre near -10
* hit, by the source's call; i = inactive; ? = inconclusive; / = no result given; & = joins results of further samples; [ ] = dose if it differs, or a comment. % is scaled to controls: 0 for no effect and ±100 for the full control effect; potency is read from the fitted curve at half-maximal effect.

SMILES | VACV mCherry inh | VACV Venus inh
CC(=O)c1ccc(NC(=O)C2CCN(S(=O)(=O)c3cccc4nonc34)CC2)cc1 | -10% | -4%
CCCCSc1nnc(-c2ccccc2N)c(=O)[nH]1 | -18% | -8%
C/C=C\C=C/C(=O)Nc1cccc(C2=NOC3(C2)C[C@H](C(N)=O)N(C(=O)c2ccc(OC)cc2)C3)c1 (stereo not given in full) | -6% | -9%
Cc1ccccc1NC(=O)COc1ccc2oc3c(c2c1)CCCC3 | -10% | -5%
CCOc1ccc(N=C2NC(=O)SC2CC(=O)OC)cc1 (stereo not given) | i | -11%
COc1cc(NC(=O)CCc2nnc3ccc(N4CCC5(CC4)OCCO5)nn23)cc(OC)c1 | -13%[7.34 µM] | -2%[7.34 µM]
C/C(=N\NS(=O)(=O)c1ccccc1)c1cccc(NC(=O)c2cccc(Cl)c2)c1 | -10% | -21%
COc1ccc(C(=O)NC(=S)NCc2cccnc2)cc1OC | -11% | -5%
CC(C)CNS(=O)(=O)c1ccc(CCC(=O)N2CCN(Cc3ccccc3)CC2)cc1 | -17% | -12%
Cc1ccccc1CNC(=O)c1nn(-c2ccccc2F)nc1CO | -7% | -12%
CCOC(=O)C1CCCN(C(=O)c2cc(S(=O)(=O)N3CCCCC3)ccc2C)C1 (stereo not given) | i | -1%
Cc1ccc(-c2nc(N/N=C/c3cccc([N+](=O)[O-])c3)c3ccccc3n2)cc1 | i | -5%
CCC(Oc1ccccc1)C(=O)Nc1ccc(S(=O)(=O)Nc2cnc3ccccc3n2)cc1 (stereo not given) | -14%[1.46 µM] | -16%
Cc1ccccc1NC(=O)C(C)c1cccc(C(=O)c2ccccc2)c1 (stereo not given) | -11% | -9%
CN(C)C(=O)CSc1nnc(Cc2ccc([N+](=O)[O-])cc2)o1 | -17% | -4%
COc1ncc(-c2ccc(N3C(c4ccsc4)=Cc4ccccc4C3CC(C)=O)cc2)cn1 (stereo not given) | 19% | -9%
CCOc1ccc(NS(=O)(=O)c2ccc(OCC(=O)NCc3ccncc3)cc2)cc1 | i | -8%
CCOc1ccccc1/C=C(/C#N)C(N)=O | i | -6%
CCOC(=O)c1cc(S(=O)(=O)N2CCN(c3cccc(C)c3C)CC2)[nH]n1 | -3% | -5%
CC1(c2ccccc2)C(C#N)C(=O)NC(=O)C1C#N (stereo not given) | -3% | -8%
O=C(CN1C(=O)CSc2cc(S(=O)(=O)N3CCCCCC3)ccc21)NCCc1ccccc1 | -18% | -19%
COC(=O)c1sc(NC(=O)c2ccncc2)nc1C | -13% | -4%
Cc1nc(N2CCN(C(=O)c3cccs3)CC2)c2c3c(sc2n1)CCCC3 | ? | ?
COC(=O)c1sccc1NC(=O)c1ccoc1C | -2% | 4%
N#Cc1cccc(NC(=O)COC(=O)C2CCC2)c1 | -7% | 10%
Cn1nc(-c2ccc(OCC(=O)Nc3cccc(C(F)(F)F)c3)cc2)c2ccccc2c1=O | ? | ?
COc1ccc(C)cc1NC(=O)Cc1ccc(NC(=O)N2CCCCc3ccccc32)cc1 | 1% | -3%
Cc1ccc2c(c1)N(Cc1cccc(C#N)c1)C=NS2(=O)=O | i | 7%
N#Cc1cccc(C(=O)Nc2cc(S(=O)(=O)N3CCOCC3)ccc2N2CCCC2)c1 | -12% | -7%
CN(C)CC/C=C1/c2ccccc2Sc2c(O)cc(Cl)cc21 | / | ?
Cc1ccc(S(=O)(=O)NCC(=O)OCc2cc(=O)oc3c(C)c(C)ccc23)cc1C | -18% | -10%
CN(C)C(=O)Oc1cccc(-c2cn3cc(Cl)ccc3n2)c1 | -2% | -17%
CCc1ccc(N(CC(=O)NC(C)(C)C)C(=O)CNC(=O)c2cccs2)cc1 | -8% | -4%
C[C@@H]1CN([C@H](C)CO)C(=O)c2cc(NC(=O)Nc3ccc(C(F)(F)F)cc3)ccc2O[C@H]1CN(C)S(=O)(=O)c1ccccc1 | -22% | ?
CCS(=O)(=O)c1cccc(C(=O)Nc2ccc(-c3nc4ccccc4s3)c(O)c2)c1 | -21%[7.34 µM] | -22%[7.34 µM]
NC(N)=NC(N)=Nc1cccc(Cl)c1 | -12% | -17%&-5%
Cc1ccc(-n2c(O)c(C=NCCCn3ccnc3)c(=O)[nH]c2=O)cc1 | 19% | 21%
O=C(Nc1ccc(Cl)c(C(F)(F)F)c1)C1Cc2c(-c3ccccc3)ccnc2O1 (stereo not given) | i | -7%
Cc1n[nH]c(=O)c2c(NC(=O)CSc3nnnn3-c3ccc(O)cc3)oc(C)c12 | i | -6%
CCN1CCN(S(=O)(=O)c2cc(OC)ccc2OC)CC1 | -14% | 1%
N[C@@H](C(=O)O)c1ccc(C(=O)O)c(C(=O)O)c1 | i | -12%
Cc1cc(C)n(CC(=O)N2CCCC(N3CCN(Cc4ccc5c(c4)OCO5)CC3)C2)n1 (stereo not given) | -7% | -4%
O=C(Nc1ccccc1F)C(=O)c1cn(CC(=O)N2CCCCC2)c2ccccc12 | i | -11%
CCN(CC)c1ccc(/C=N/NC(=O)c2c[nH]c3ccccc23)cc1 | ? | ?
CCCCCCCCCCCCCCCCOP(=O)([O-])OCC[N+](C)(C)C | ? | ?
COc1ccc(C(=O)O)cc1S(=O)(=O)Nc1ccc(N2CCCCC2)cc1 | i | 3%
Cc1ccc(NC(=O)C2CCN(S(=O)(=O)c3cccc4nonc34)CC2)cc1 | 10% | -1%
NCC1OC(n2cnc3c(=O)[nH]c(N)nc32)C(O)C1O (stereo not given) | i | 0%
COc1ccc(Br)cc1/C=N/NC(=O)CNC(=O)c1cccnc1 | -12%[7.34 µM] | 0%[7.34 µM]
CC(=O)c1cc(CCC(=O)NC2CCCCCC2)oc1C | i | -2%
CC(=O)Nc1ccc(S(=O)(=O)NCC2CCC(C(=O)N3CCN(c4ccccn4)CC3)CC2)cc1 (stereo not given) | -16% | -11%
COC(=O)c1ccc(CSc2nc3ccccc3[nH]2)o1 | -8% | -2%
COc1cc(NC(=O)Cn2cc(C(=O)c3ccc(F)cc3)c(=O)c3ccc(C)nc32)cc(OC)c1 | -2% | -16%
COc1cccc(OCCOCCN(C)CCO)c1 | -18%[1.46 µM] | -6%
COc1ccc(-n2nc(C(=O)NCC(=O)NCCc3ccc(OC)c(OC)c3)c3ccccc3c2=O)cc1 | 10% | 10%
CCCCN(CCCC)c1ccc(C(=O)c2ccccc2C(=O)O)c(O)c1 | -16% | -12%
Cc1cnc2c(c1SCC(=O)Nc1ccc(F)cc1F)c(=O)n(C)c(=O)n2C | -13% | -3%
CCOC(=O)c1cc(-c2ccc(C)cc2)n(CC(=O)Nc2ccccc2F)c1C | ? | ?
CCN=C(Nc1cccc(F)c1)SC1CC(=O)N(c2ccc(OC)cc2)C1=O (stereo not given) | -5% | -9%
Cc1[nH]n(-c2ccccc2)c(=S)c1C=Nc1ccc([N+](=O)[O-])cc1 | i | -6%

The results go on:
SMILES | VACV mCherry inh | VACV Venus inh
CCOc1nnnc2c1sc1nc(N3CCOCC3)c3c(c12)CCCC3 | / | -15%
Cc1nnc(N2CCC(C(=O)NCc3cccc(Cl)c3)CC2)c2nn(-c3ccccc3)c(C)c12 | -17% | -11%
Cc1coc2cc3oc(=O)c(CC(=O)N(C)CC(=O)O)c(C)c3cc12 | i | -13%
CCc1ccc(NC(=O)CN(c2ccc(Cl)cc2)S(=O)(=O)c2ccsc2C(=O)OC)cc1 | -14% | -10%
CCn1c(=O)n(CC(=O)N2CCN(c3ccccc3F)CC2)c(=O)c2ccccc21 | / | -11%
COc1ccc(/C(O)=C2/C(=O)C(=O)N(CCN(C)C)C2c2ccc(OC)c(OC)c2)c(C)c1 (stereo not given) | -24% | -19%
O=C(c1ccccc1)C1CCN(C(=O)Nc2ccccc2)CC1 | 5%[7.34 µM] | -20%[7.34 µM]
Cc1cccc(NC(=S)Nc2ccc3cn[nH]c3c2)c1 | 9% | 3%
CCN(CC)C1=C(Cl)C(=O)C(Cl)C12OCCO2 (stereo not given) | -12% | -2%
CCN1C(=O)[C@H]2[C@@H](c3ccc(C)cc3)N[C@]3(CCCN(CC4CCCCC4)C3=O)[C@H]2C1=O | i | -11%
CCCNC(=O)C1(C)CCCN(C(=O)C(c2ccccc2)c2ccccc2)C1 (stereo not given) | 25% | 6%
CNc1c(NC(=O)C2CCC(C)CC2)c(=O)oc2ccccc12 (stereo not given) | -21% | -10%
Cc1ccc(NC(=O)Cn2c(=O)n(Cc3nc(-c4ccccc4)no3)c(=O)c3cc4c(cc32)OCO4)c(C)c1 | -19% | -15%
O=C(NCc1ccc2c(c1)OCO2)Nc1ccc2nsnc2c1 | i | -20%
O=C(Nc1cccc(C(=O)O)c1)/C(=C\c1ccccc1Cl)NC(=O)c1ccco1 | -13% | -8%
CC(C)(C)c1ccc(C(=O)C[n+]2cccc(Br)c2)cc1 | -15% | -16%
CC(=O)c1ccc(NC(=O)c2ccc(-n3cncn3)c([N+](=O)[O-])c2)cc1 | -3% | -8%
COc1ccc(S(=O)(=O)N2CCCCCC2)cc1C(=O)N(C)CC(=O)Nc1ccc(Cl)c(Cl)c1 | -2% | -14%
CCN(CC(=O)NCc1ccc(F)cc1)C(=O)Cc1ccc(OC)cc1 | -29% | -25%
COc1cccc(C(=O)NN2c3ccccc3CCc3ccccc32)c1 | -13% | -26%

Given with two lines to a compound: entries from further up.
Every second line gives: VACV mCherry inh, VACV Venus inh
- O=C(c1ccccc1)C1CCN(C(=O)Nc2ccccc2)CC1
  5%[7.34 µM], -20%[7.34 µM]
- Cc1cccc(NC(=S)Nc2ccc3cn[nH]c3c2)c1
  9%, 3%
- CCN(CC)C1=C(Cl)C(=O)C(Cl)C12OCCO2 (stereo not given)
  -12%, -2%
- CCN1C(=O)[C@H]2[C@@H](c3ccc(C)cc3)N[C@]3(CCCN(CC4CCCCC4)C3=O)[C@H]2C1=O
  i, -11%
- CCCNC(=O)C1(C)CCCN(C(=O)C(c2ccccc2)c2ccccc2)C1 (stereo not given)
  25%, 6%
- CNc1c(NC(=O)C2CCC(C)CC2)c(=O)oc2ccccc12 (stereo not given)
  -21%, -10%
- Cc1ccc(NC(=O)Cn2c(=O)n(Cc3nc(-c4ccccc4)no3)c(=O)c3cc4c(cc32)OCO4)c(C)c1
  -19%, -15%
- O=C(NCc1ccc2c(c1)OCO2)Nc1ccc2nsnc2c1
  i, -20%
- O=C(Nc1cccc(C(=O)O)c1)/C(=C\c1ccccc1Cl)NC(=O)c1ccco1
  -13%, -8%
- CC(C)(C)c1ccc(C(=O)C[n+]2cccc(Br)c2)cc1
  -15%, -16%
- CC(=O)c1ccc(NC(=O)c2ccc(-n3cncn3)c([N+](=O)[O-])c2)cc1
  -3%, -8%
- COc1ccc(S(=O)(=O)N2CCCCCC2)cc1C(=O)N(C)CC(=O)Nc1ccc(Cl)c(Cl)c1
  -2%, -14%
- CCN(CC(=O)NCc1ccc(F)cc1)C(=O)Cc1ccc(OC)cc1
  -29%, -25%
- COc1cccc(C(=O)NN2c3ccccc3CCc3ccccc32)c1
  -13%, -26%

(further entries)
SMILES | VACV mCherry inh | VACV Venus inh
CN1C(=O)Cc2cc(S(=O)(=O)Nc3ccc(Cl)cc3)ccc21 | ? | 0%
COc1cc(OC)c(NC(=O)CCc2nc(-c3cccs3)no2)cc1Cl | -13% | -5%
O=C1CC(=O)N(CCNc2ncc(C(F)(F)F)cc2Cl)C(=O)N1 | / | -14%
Cc1c(CCOC(=O)C2C3CC4CC(C3)CC2C4)sc[n+]1CC(=O)c1ccc(Br)cc1 (stereo not given) | / | ?
NS(=O)(=O)c1ccc(N2N=C(c3ccc(Br)cc3)CC2c2ccc(F)cc2)cc1 (stereo not given) | 16µM* | 11µM*
Cc1cc(C)nc(SCc2nnc(SCC(=O)O)n2-c2ccccc2)n1 | -6% | 2%
c1ccc(Oc2cc(-c3ccccc3)nc(-c3ccccc3)n2)cc1 | -14% | -6%
Cc1cccc(OCc2cc(=O)n3c(-c4ccccc4)csc3n2)c1C | -15% | -10%
COc1ccccc1NS(=O)(=O)c1c(C)[nH]c(C)c1C(=O)N1CCCC1 | -1%[7.34 µM] | 0%[7.34 µM]
COC(=O)Cc1ccc(OC2(C)CCN(Cc3ccccc3)C2)cc1 (stereo not given) | 0% | 8%
O=C1CC(NS(=O)(=O)c2ccccc2F)CN1c1ccc2c(c1)OCCO2 (stereo not given) | i | -5%
N#CC1=C(S)N(c2ccc(F)cc2)C2(CCCCC2)NC1=O | -4% | -10%
CCOC(=O)c1cnc(-n2nc(C)cc2C)nc1NCc1ccc2c(c1)OCO2 | ? | ?
O=C(COc1cccc(Br)c1)NN=C1c2ccccc2-c2ccccc21 | -7% | -9%
Cc1ccc(NC(=O)CC2Oc3ccccc3NC2=O)cc1C (stereo not given) | -19% | -15%
Cc1cc(Br)cn2c(Cc3cccc(Cl)c3)c(-c3cccc(Cl)c3)nc12 | 31%[activator] | 6%
CC(NC(=O)C1CCCN1C(=O)OCc1ccccc1)c1ccccc1 (stereo not given) | i | -3%
O=C(COc1ncnc2sccc12)NC1CCS(=O)(=O)C1 (stereo not given) | -14% | 5%
CCOC(=O)COc1ccc(C)cc1C(=O)c1ccn2nc(-c3ccc(F)cc3)cc2n1 | -19% | -18%
O=C(Nc1ccc(N2CCN(Cc3ccccc3)CC2)cc1)c1ccco1 | -7% | -12%
Cc1cccc(-n2c(O)c(C=Nc3cc(O)ccc3C)c3ccccc3c2=O)n1 | -2% | -11%
